S aureus helic: S. aureus DNA helicase inhibition; inhibition, %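 (tested at about 80 µM)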; 120,000 compounds, 0.05% hits; purified S. aureus helicase, fluorescence unwinding assay; about half of the hits fall short of the stated cut; AID 485395;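 active = both duplicates at 50% or more, or one of them with a favoured structure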;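 also: 0% = mean of negative control wells and 100% = mean of positive control wells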
MgrA DNA FP: S. aureus MgrA-DNA binding modulation; AID 602314; fluorescence polarization; 84,000 compounds, 0.13% hits; inhibition, %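 (about 10 µg/mL by stock and volumes)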;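 active = above 50% in either of two replicates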;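 also: 0% = protein plus DNA without compound and 100% = DNA alone without protein; higher means less MgrA bound to DNA so lower polarization; one replicate is shown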
* hit, by the source's call. The list is partial; rates above refer to the full screens.

What do the screens show for `COc1ccc(CNc2n[nH]c(=S)s2)cc1`?
MgrA DNA FP: -0.9

What do the screens show for `CCCCn1c(C)nc2ccc(S(N)(=O)=O)cc21`?
S aureus helic: -13.0; MgrA DNA FP: 0.3

How did Cc1ccc(Cc2nn[nH]n2)cc1 do in these assays?
S aureus helic: -5.0; MgrA DNA FP: -2.9

How did CC1CCCCN1S(=O)(=O)c1ccc(CN2C(=O)c3cccnc3C2=O)cc1 (stereo not drawn) do in these assays?
S aureus helic: 11.0; MgrA DNA FP: 1.1

What do the screens show for `C(/C=C/c1ccccc1)=N/N1CCN(c2ccccc2)CC1`?
S aureus helic: 4.0; MgrA DNA FP: 1.7

How did CSc1ccc(C2C3CCCc4ccccc4C3=NN2CCO)cc1 (stereo not drawn) do in these assays?
MgrA DNA FP: -2.6

Results for CC1(C)CC(=O)c2cnc(NCc3ccccc3)nc2C1 ?
S aureus helic: 14.0; MgrA DNA FP: 0.8

What do the screens show for `CCCCNS(=O)(=O)c1ccc2[nH]c(=S)[nH]c2c1`?
S aureus helic: -13.0

Results for COc1cccc(N=C2NNC(C)=C(C(=O)N(C)C)S2)c1 ?
S aureus helic: 8.0

Results for CCOc1cc(S(=O)(=O)N2CCC(c3nc4ccccc4s3)CC2)c(OCC)cc1S(=O)(=O)N1CCOCC1 ?
S aureus helic: 7.0; MgrA DNA FP: -26.7

How did COc1ccc(C2C(C#N)=C(C(C)(C)C)Nc3ncnn32)cc1 (stereo not drawn) do in these assays?
S aureus helic: 9.0

What do the screens show for `Cc1ccc(C(=O)OCc2ccco2)cc1`?
S aureus helic: 1.0; MgrA DNA FP: -1.1

How did Nc1ccccc1C(=O)NCc1ccccc1 do in these assays?
S aureus helic: -3.0

Results for Cc1cnc(NC(=O)c2ccc3c(c2)OCO3)s1 ?
S aureus helic: 10.0; MgrA DNA FP: -2.7

What do the screens show for `CC(=O)Nc1sc2c(c1CN(C)C)CCCC2`?
S aureus helic: -6.0

What do the screens show for `O=C(NC1CC1)c1ccccc1SCc1ccc(F)cc1`?
S aureus helic: -7.0; MgrA DNA FP: -0.4

How did O=C(O)c1ccccc1C(=O)Nc1ccc(C(F)(F)F)cn1 do in these assays?
MgrA DNA FP: 1.1

What do the screens show for `Cc1ccc(C)n1-c1ccc(C(=O)NN)s1`?
S aureus helic: 4.0

What do the screens show for `O=c1c2ccccc2c(-c2ccc(Cl)cc2)nn1-c1ccccc1`?
MgrA DNA FP: -2.4

What do the screens show for `Cc1cc2oc(=O)cc(COC(=O)C3CC3)c2cc1Cl`?
S aureus helic: -10.0

What do the screens show for `Clc1ccc(OCc2ccsc2Cn2cccc2)cc1`?
MgrA DNA FP: -2.6

How did O=C(O)c1cccc(Oc2cccc(C(F)(F)F)c2)c1 do in these assays?
S aureus helic: 7.0

How did COc1ccc(N2CCN(Cc3ccc(C)o3)CC2)cc1 do in these assays?
S aureus helic: 7.0; MgrA DNA FP: -0.1

How did COc1cc(C2Nc3cccc4cccc(c34)N2)cc(OC)c1OC do in these assays?
MgrA DNA FP: 3.4

No new results follow: 4 of the compounds above.
What do the screens show for `O=C(NC1CC1)c1ccccc1SCc1ccc(F)cc1`?
S aureus helic: -7.0; MgrA DNA FP: -0.4

How did O=C(O)c1ccccc1C(=O)Nc1ccc(C(F)(F)F)cn1 do in these assays?
MgrA DNA FP: 1.1

What do the screens show for `Cc1ccc(C)n1-c1ccc(C(=O)NN)s1`?
S aureus helic: 4.0

What do the screens show for `O=c1c2ccccc2c(-c2ccc(Cl)cc2)nn1-c1ccccc1`?
MgrA DNA FP: -2.4

Of the compounds above, these contain an NH in an aromatic ring.
What do the screens show for `COc1ccc(CNc2n[nH]c(=S)s2)cc1`?
MgrA DNA FP: -0.9

How did Cc1ccc(Cc2nn[nH]n2)cc1 do in these assays?
S aureus helic: -5.0; MgrA DNA FP: -2.9

What do the screens show for `CCCCNS(=O)(=O)c1ccc2[nH]c(=S)[nH]c2c1`?
S aureus helic: -13.0

Following part
Results for CC(=O)NC(=O)c1cc2cc(Br)ccc2oc1=Nc1ccccc1F ?
MgrA DNA FP: 2.2

How did CN(c1ccc(C(=O)NCc2cccnc2)cc1)S(C)(=O)=O do in these assays?
S aureus helic: 14.0; MgrA DNA FP: -1.8

Results for COc1cc(NC(=O)c2ccccc2)c(OC)cc1NCC(=O)Nc1ccc2c(c1)OCCO2 ?
S aureus helic: -13.0

How did CSc1nnc(-c2ccc(Br)s2)n1C do in these assays?
MgrA DNA FP: 0.0

How did O=C(O)CN1C(=O)CC(c2ccccc2)Sc2ccccc21 (stereo not drawn) do in these assays?
MgrA DNA FP: -1.4

What do the screens show for `C(=NCCCN1CCOCC1)c1ccc2c(c1)OCO2`?
S aureus helic: 9.0; MgrA DNA FP: 1.5

What do the screens show for `COc1ccc(/C=C(\C#N)C(=O)ONC2=NCCCCC2)cc1`?
S aureus helic: 13.0

Results for S=C1NC2=C(C(c3ccc(Br)cc3)N1)N1CCC2CC1 (stereo not drawn) ?
S aureus helic: 7.0

What do the screens show for `CC1CCC(C(C)C)C(OC(=O)CN2CCCCC2)C1` (stereo not drawn)?
S aureus helic: 7.0; MgrA DNA FP: 1.2

Results for CC(C)Nc1nc(Cl)nc(NC(C)(C)CO)n1 ?
S aureus helic: 2.0; MgrA DNA FP: -1.3

Results for CC(C)(CO)C(O)C(=O)NN (stereo not drawn) ?
S aureus helic: -1.0; MgrA DNA FP: 2.5

Results for CCOc1ccccc1-c1cc(C(=O)N/N=C(\C)c2ccco2)[nH]n1 ?
S aureus helic: 5.0; MgrA DNA FP: 1.9

How did N#C/C(C(=S)NCc1ccccc1)=C1/NN=C2CCCCCN21 do in these assays?
S aureus helic: 7.0

What do the screens show for `O=C1c2cccnc2C(=O)N1c1ccc2c(c1)OCO2`?
S aureus helic: 8.0; MgrA DNA FP: -1.0

How did CCCCCSc1ncccc1C(=O)O do in these assays?
MgrA DNA FP: 0.8

What do the screens show for `CC(C)n1cc(C(=O)O)c(=O)c2ccccc21`?
S aureus helic: 16.0

How did CCCc1cc(=O)[nH]c2c1c(C)nn2-c1cccc(F)c1 do in these assays?
S aureus helic: 7.0

Results for OCc1ccccc1O ?
MgrA DNA FP: 4.8

What do the screens show for `CNC(=S)N/N=C/c1cccc(Cl)c1`?
S aureus helic: -5.0

Results for Cc1ccc(NC2C=CS(=O)(=O)C2)cc1 (stereo not drawn) ?
S aureus helic: 6.0; MgrA DNA FP: 0.3

Results for O=C(O)c1cc(NS(=O)(=O)c2ccc3ccccc3c2)ccc1O ?
S aureus helic: -15.0

What do the screens show for `Cc1cc(N2CCOCC2)nc2ccccc12`?
MgrA DNA FP: 1.1

Results for O=C(COc1ccccc1)N1CCN(C(=O)COc2ccccc2)CC1 ?
S aureus helic: -4.0; MgrA DNA FP: -1.7

Results for O=C(NCc1ccc(F)cc1)c1ccncc1 ?
S aureus helic: 23.0; MgrA DNA FP: -0.6

How did CC1CCCC(C)N1S(=O)(=O)c1ccc(NC(=O)CCn2cnc3ccccc3c2=O)cc1 (stereo not drawn) do in these assays?
S aureus helic: 8.0; MgrA DNA FP: -2.3

What do the screens show for `O=C(NCc1ccco1)Nc1ccccc1`?
S aureus helic: 7.0; MgrA DNA FP: -3.0

How did Cc1noc(C)c1C(=O)NCC(c1ccccc1Cl)c1c[nH]c2ccccc12 (stereo not drawn) do in these assays?
S aureus helic: 8.0

Results for Cc1ccc(N=C2CCCN2Cc2ccccc2)c(C#N)c1 ?
S aureus helic: 16.0; MgrA DNA FP: 4.2

What do the screens show for `COc1ccc2c(-c3ccccc3)cc(=O)[nH]c2c1`?
S aureus helic: -14.0; MgrA DNA FP: -3.2

Results for Fc1cnc(Nc2ccc3c(c2)OCO3)nc1Nc1ccc2c(c1)OCO2 ?
S aureus helic: 0.0; MgrA DNA FP: 2.0

Results for COc1cccc(C(=O)SC2=NCCS2)c1 ?
S aureus helic: -10.0

Results for O=C(Nc1ccc(-c2nc3ccccc3s2)cc1)C1CCCO1 (stereo not drawn) ?
S aureus helic: 8.0; MgrA DNA FP: 4.8

Results for O=C(NCCC1CCCC1)c1cccs1 ?
S aureus helic: 7.0; MgrA DNA FP: -3.0

How did Cc1cc(C)nc(SCC(=O)OCC(=O)Nc2sccc2C#N)n1 do in these assays?
S aureus helic: -20.0

How did CCOC(=O)C1=C(N)OC2=C(C(=O)CC(C)(C)C2)C1c1ccc(OC)c(OC)c1 (stereo not drawn) do in these assays?
MgrA DNA FP: -2.2

How did CCOC(=O)c1nnn2c1nc(N(Cc1ccccc1)Cc1ccccc1)c1ccccc12 do in these assays?
MgrA DNA FP: -2.0

How did O=C(O)C1C2CCCC(CC2)C1C(=O)O (stereo not drawn) do in these assays?
MgrA DNA FP: 0.3

How did CC1CN(C(=O)CNc2ccccc2C(=O)NCc2ccccc2)CC(C)O1 (stereo not drawn) do in these assays?
S aureus helic: 29.0

How did CC(NC(=O)c1ccccc1)c1nc2ccccc2n1CC(=O)NC(=O)NC(C)(C)C (stereo not drawn) do in these assays?
S aureus helic: -9.0

Results for O=C(Cc1ccc(Cl)cc1)Nc1cccc(-c2nc3cc4ccccc4cc3[nH]2)c1 ?
S aureus helic: 12.0; MgrA DNA FP: 2.7

Results for COc1cc(/C=N/N=C2/SC(CC(=O)O)C(=O)N2C)cc(OC)c1OC (stereo not drawn) ?
S aureus helic: 10.0

Results for CC(CN1CCCCC1)OC(=O)c1ccc2c(c1)OCCO2 (stereo not drawn) ?
S aureus helic: 11.0

What do the screens show for `NC(=O)C1C(=O)NC(c2ccccc2)=CC1c1ccc(Cl)cc1` (stereo not drawn)?
S aureus helic: 13.0; MgrA DNA FP: -1.2

What do the screens show for `Cn1c(C(=O)OCC(=O)NC2CCCCC2)cc2sccc21`?
S aureus helic: 10.0; MgrA DNA FP: -27.3

How did CC1Cc2ccccc2N1CC(=O)N1Cc2ccccc2C1 (stereo not drawn) do in these assays?
S aureus helic: 8.0

How did CSc1sc(C(C)=O)c2c1C(=O)CC(C)(C)C2 do in these assays?
MgrA DNA FP: 3.1

What do the screens show for `Cc1nn(C(=O)C23CC4CC(CC(C4)C2)C3)c(C)c1Sc1ccccc1`?
S aureus helic: -6.0; MgrA DNA FP: 1.3

Results for COC(=O)C1(C(=O)OC)CC=CC1 ?
S aureus helic: -13.0; MgrA DNA FP: 0.7

How did O=C(Nc1ccccc1)c1ncc[nH]1 do in these assays?
MgrA DNA FP: -2.1

How did CCOC(=O)c1c(-c2ccccc2)oc2ccc(NS(=O)(=O)c3ccc(CC)cc3)cc12 do in these assays?
S aureus helic: 3.0; MgrA DNA FP: 2.4

What do the screens show for `Brc1cncc(Br)c1`?
S aureus helic: 3.0

What do the screens show for `C/C(=N\O)c1ccc2c3ccccc3n(C)c2c1`?
S aureus helic: 1.0

Results for COCCNC(=O)c1cc(-c2ccccc2O)no1 ?
S aureus helic: -2.0

Results for CN(C)S(=O)(=O)c1ccc(C(=O)Nc2nnc(C3CC3)o2)cc1 ?
S aureus helic: -11.0

What do the screens show for `O=C1CC2(O)CCC1(c1ccccc1)CC2`?
MgrA DNA FP: 2.1

Results for NNC(=O)CCc1ccc(O)cc1 ?
S aureus helic: -30.0

How did CCC1Oc2ccc(C)cc2N(CC(=O)Nc2ccc3c(c2)OCCO3)C1=O (stereo not drawn) do in these assays?
S aureus helic: 1.0; MgrA DNA FP: 3.8

How did CC1CN(Cn2c(=S)oc3ccccc32)CC(C)O1 (stereo not drawn) do in these assays?
S aureus helic: -3.0

What do the screens show for `CC(Oc1cc(C(F)(F)F)cc(C(F)(F)F)c1)C(=O)NC(N)=O` (stereo not drawn)?
S aureus helic: 0.0

Results for Cc1ccc(-c2nc3ncccn3c2NC(=O)c2cccc(C(F)(F)F)c2)cc1 ?
S aureus helic: 11.0; MgrA DNA FP: -6.5

Entries above that contain a tert-butyl group (two):
How did COc1ccc(C2C(C#N)=C(C(C)(C)C)Nc3ncnn32)cc1 (stereo not drawn) do in these assays?
S aureus helic: 9.0

How did CC(NC(=O)c1ccccc1)c1nc2ccccc2n1CC(=O)NC(=O)NC(C)(C)C (stereo not drawn) do in these assays?
S aureus helic: -9.0

The list continues:
What do the screens show for `O=C1/C(=C/c2ccco2)CCc2ccccc21`?
S aureus helic: 32.0

Results for Cn1c(=O)cc(OCC(=O)NCC2COc3ccccc3O2)c2ccccc21 (stereo not drawn) ?
S aureus helic: 3.0; MgrA DNA FP: 1.9

How did Cc1cccc(NC(=O)COC(=O)c2cc(C)oc2C)c1 do in these assays?
S aureus helic: -15.0

What do the screens show for `COc1cc2c(=O)n(Cc3ccccc3)c(=O)n(CC(=O)N3CC(C)CC(C)C3)c2cc1OC` (stereo not drawn)?
S aureus helic: 11.0

What do the screens show for `CC(O)c1cc2ccccc2o1` (stereo not drawn)?
S aureus helic: 0.0

Results for C1CCN(CCC2CCNCC2)CC1 ?
S aureus helic: 1.0; MgrA DNA FP: 2.2

Results for CCOc1ccc(NC(=O)c2c3c(nc4ccccc24)CCCC3)cc1 ?
S aureus helic: -1.0; MgrA DNA FP: -0.7

Results for CC1CCCC(C)N1CC(O)c1ccccc1 (stereo not drawn) ?
S aureus helic: 4.0; MgrA DNA FP: -1.5

How did CCc1cc2c(=O)c(-c3nc4ccccc4s3)c(C)oc2c(CN(C)C)c1O do in these assays?
S aureus helic: -19.0; MgrA DNA FP: 0.9

How did Cn1c(=N)n(CCO)c2ccccc21 do in these assays?
S aureus helic: -14.0

What do the screens show for `O=c1ccc2ccccc2o1`?
MgrA DNA FP: 0.0

How did Cc1ccc(-c2noc(CCCCCN)n2)cc1 do in these assays?
S aureus helic: 37.0

How did O=C(NC1Cc2ccccc2C1)c1ccc2nonc2c1 do in these assays?
MgrA DNA FP: 3.1

Results for CC(C)(C)OC(=O)N1CCC(C(=O)OCC(=O)c2ccc3c(c2)CCC3)CC1 ?
S aureus helic: 7.0

Results for COc1cc(C(=S)N2CCCC2)cc(Cl)c1O ?
S aureus helic: 23.0; MgrA DNA FP: -3.6
